TexasRed fluor: counter-screen for TRb-SRC2 inhibitors: fluorescence interference. TRb/SRC2 Texas Red total fluorescence interference. Potency, µM (titrated, usually from 106 µM), for inactives: at the top dose fluorescence change, negative = quenching. 280,000 tested, 0.29% active. AID 1479; active = well fitted curve in either direction with a large enough effect; inconclusive = small, poorly fitted or top-dose-only effect; also: % is scaled to controls: 0 for no effect and ±100 for the full control effect
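Flags fluorescent or light-absorbing compounds by total fluorescence, S + 2P, at 555 nm excitation and 632 nm emission. Mixture: 20 nM Texas Red SRC2 peptide, 0.6 uM human TRb LBD, 1 uM T3, 5% DMSO; compound exposure 5 h at ambient temperature.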
TRb SRC2 PPI: disrupts binding of human TR beta to SRC2. P10828. TRbeta-SRC2 peptide binding, fluorescence polarization; receptor liganded with 1 µM T3. Potency, µM (titrated, usually from 106 µM), for inactives: top-dose activity change, negative = inhibition, most hits filed as inhibitors. 280,000 tested, 0.065% active. AID 1469;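 also: plate controls were bound peptide for no effect and peptide without receptor for full effect; nearly all actives have a fitted effect of over 50% in size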
Target sequence (P10828 whole entry, looked up): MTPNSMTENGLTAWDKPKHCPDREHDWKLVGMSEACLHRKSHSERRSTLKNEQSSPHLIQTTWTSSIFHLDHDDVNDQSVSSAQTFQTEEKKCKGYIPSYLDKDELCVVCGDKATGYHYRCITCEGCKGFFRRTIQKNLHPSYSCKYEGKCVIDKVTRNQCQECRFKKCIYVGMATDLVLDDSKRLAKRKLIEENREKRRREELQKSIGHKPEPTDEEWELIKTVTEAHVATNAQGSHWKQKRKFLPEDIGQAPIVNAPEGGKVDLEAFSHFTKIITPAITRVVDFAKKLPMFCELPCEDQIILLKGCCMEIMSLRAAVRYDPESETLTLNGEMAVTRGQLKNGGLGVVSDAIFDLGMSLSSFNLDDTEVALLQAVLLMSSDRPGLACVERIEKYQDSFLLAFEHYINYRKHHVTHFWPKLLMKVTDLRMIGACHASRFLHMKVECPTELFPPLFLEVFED
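Compounds were added to 0.6 uM TRb ligand-binding domain and 20 nM Texas Red-labeled SRC2 peptide in Tris buffer containing 1 uM T3, incubated 5 hr at ambient temperature, then read by fluorescence polarization.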
Epigenetic reg: derepresses silenced GFP reporter in murine cells; AID 1865; 280,000 tested, 0.2% active; Potency, µM (series often up to 53.9 µM), without a hit: at the top dose GFP activation, most hits filed as activators; murine LDR cells, GFP reporter derepression, 30 h; also: % of control where 0% means no effect; nearly all actives have a fitted effect of over 60% in size
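Derepression of a silenced CMV-GFP reporter in murine LDR cells is scored by enumerating GFP-positive cells with a laser-scanning microplate cytometer after 30 hours of treatment at 37 C.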
NPSR antag: blocks cAMP signaling of the human neuropeptide S receptor | CHO-NPSR cells, cAMP TR-FRET, antagonist mode | Potency, µM (top dose mostly 38.3 µM), for the others: top-dose activity change, negative = inhibition, usual class: inhibitors | 220,000 tested, 1% active | AID 1461; also: % is scaled to controls: 0 for no effect and ±100 for the full control effect; nearly all actives have a fitted effect of over 50% in size; many of its hits are not listed in these tables
The depositor's hits bear a star; ? = inconclusive; . = not tested or not shown; [ ] = remark or other dose. Unless noted, calls follow the shape of the dose curve; as a rule, active = well fitted curve in the direction sought with a large enough effect; inconclusive = small, poorly fitted or top-dose-only effect, or another doubt; inactive = no such curve, though single readings can be large; an effect the other way counts as inactive or inconclusive. Potency is read from the fitted curve at half-maximal effect. A portion of the library; the hit share may differ from the screen's.

Results follow in this order: NPSR antag | Epigenetic reg | TexasRed fluor | TRb SRC2 PPI
(1) Cc1c(F)c(F)c(COC(=O)C2C(/C=C(\Cl)C(F)(F)F)C2(C)C)c(F)c1F (stereo not given)
 : . | . | 2% | 4%
(2) O=c1[nH]oc2c1CCNC2
 : -9%[46.1 µM] | 7.1% | -3% | 0%
(3) Oc1cccc(Cl)c1
 : . | . | 1% | 3%
(4) CCCC(C)C1(CC)C(=O)NC(=S)NC1=O (stereo not given)
 : . | -4.6% | 1% | 7%
(5) CCOCN(C(=O)CCl)c1c(C)cccc1CC
 : . | 2.0% | 0%[201 µM] | -2%[201 µM]
(6) CN1C[C@H](CNC(=O)OCc2ccccc2)C[C@H]2c3cccc4c3c(cn4C)C[C@@H]21
 : . | 0.6% | 2% | -4%
(7) CCC(=O)Nc1ccc(Cl)c(Cl)c1
 : . | -0.8% | -5%[201 µM] | -2%[201 µM]
(8) COC(=O)C1=C(C)NC(C)=C(C(=O)OC)C1c1ccccc1[N+](=O)[O-]
 : -30% | ? | -5% | -6%
(9) C(CCOCC1CO1)COCC1CO1 (stereo not given)
 : . | . | -2% | 10%
(10) O=[N+]([O-])c1ccc(F)c([N+](=O)[O-])c1
 : . | . | -9% | 6%
(11) BrCCc1ccccc1
 : . | . | -4% | 7%
(12) C=CCN
 : . | 0.9% | -5% | -1%
(13) CNC(=O)Oc1cccc2ccccc12
 : 7%[7.67 µM] | -1.4% | -3%[201 µM] | -2%[201 µM]
(14) CC[C@@H](C(N)=O)N1CCCC1=O
 : 21% | 2.1% | 4% | 1%
(15) O=C(O)CCCc1ccc(N(CCCl)CCCl)cc1
 : -16% | -1.1% | -2% | -1%
(16) Cc1ccc(CNC2=NCCS2)cc1
 : -12% | 3.0% | -3% | -4%
(17) CCn1cc(C(=O)O)c(=O)c2ccc(C)nc21
 : 12% | -1.9% | 0% | 1%
(18) NC(=O)c1ncn(C2OC(CO)C(O)C2O)n1 (stereo not given)
 : . | -0.8% | 0% | -4%
(19) Cc1[nH]ccc2c1[nH]c1cc(=O)ccc12
 : 9% | ? | 0% | 3%

Compound profiles, as listed above.
Cc1ccc(CNC2=NCCS2)cc1 in the list: NPSR antag = -12%; Epigenetic reg = 3.0%; TexasRed fluor = -3%; TRb SRC2 PPI = -4%
CCOCN(C(=O)CCl)c1c(C)cccc1CC in the list: NPSR antag = .; Epigenetic reg = 2.0%; TexasRed fluor = 0%[201 µM]; TRb SRC2 PPI = -2%[201 µM]
C=CCN in the list: NPSR antag = .; Epigenetic reg = 0.9%; TexasRed fluor = -5%; TRb SRC2 PPI = -1%

Given with each value named: entries from further up
4	CCCC(C)C1(CC)C(=O)NC(=S)NC1=O (stereo not given)
  NPSR antag: .
  Epigenetic reg: -4.6%
  TexasRed fluor: 1%
  TRb SRC2 PPI: 7%
5	CCOCN(C(=O)CCl)c1c(C)cccc1CC
  NPSR antag: .
  Epigenetic reg: 2.0%
  TexasRed fluor: 0%[201 µM]
  TRb SRC2 PPI: -2%[201 µM]
6	CN1C[C@H](CNC(=O)OCc2ccccc2)C[C@H]2c3cccc4c3c(cn4C)C[C@@H]21
  NPSR antag: .
  Epigenetic reg: 0.6%
  TexasRed fluor: 2%
  TRb SRC2 PPI: -4%

Retrieved by compound from the entries so far, 2 records:
Results follow in this order: NPSR antag | Epigenetic reg | TexasRed fluor | TRb SRC2 PPI
(19) Cc1[nH]ccc2c1[nH]c1cc(=O)ccc12
 : 9% | ? | 0% | 3%
(11) BrCCc1ccccc1
 : . | . | -4% | 7%
